Source: PubChem (ICCB-Longwood Screening Facility, Harvard Medical School)
Anaer choline gr = growth inhibitors of anaerobic choline-fed gram-negatives, minimal medium, absorbance; Gram-negative bacterium anaerobic choline minimal medium; active compounds read low; many inactives read as strong as hits in the columns shown; calls only; 55,000 tested, 0.2% active; AID 1963822, 2024;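 active = growth z-score on choline under -2 at 7 or 20 h with little or no fall on glycerol, limits in tiers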;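 note: stock transfer was 300 nL into about 50 µL; the organism is E. coli; final concentration not given here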
Anaer choline gr early = further read-out of Anaer choline gr, marked with its call; z-score; measured here: choline growth z-score, timepoint 1;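 score of optical density at 7 h as mean of two plates; lower means less growth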
Active calls of the source: *; i = inactive; & = joins results of further samples.

SMILES | Anaer choline gr | Anaer choline gr early
CCCCC[C@H](O)/C=C/[C@@H]1[C@@H](C/C=C\CCCC(=O)OCC(O)CO)[C@@H](O)C[C@H]1O (stereo partly specified) | i | 0.43
O=C(c1ccc2snnc2c1)N1CCN(c2ccccn2)CC1 | i | 0.89
Cc1nn(CC(=O)NC(C)(C)C)c(C)c1S(=O)(=O)N1CCCC(C(=O)Nc2ccc(F)cc2)C1 (stereo unspecified) | i | -0.12
CC(=O)N1c2ccc(S(=O)(=O)NC(Cc3ccccc3)C(=O)Nc3nc(C)cs3)cc2CC1C (stereo unspecified) | i | 0.8
O=C1C2=C(Nc3ccccc3SC2c2cccc(Cl)c2)c2ccccc21 (stereo unspecified) | i | 0.68
Cc1cc(C)c(Nc2c(C(=O)N3CCCCC3)cnc3ccc(F)cc23)c(C)c1 | i | -0.07
COc1ccc(NC(=O)CCS(=O)(=O)c2ccc3c(c2)NC(=O)CCS3)c(OC)c1 | i | -1.8
CCc1ccc(NC(=O)c2ccc(CNc3c(NC4CCCC4)c(=O)c3=O)cc2)cc1 | i | 0.58
O=C(NC1CCCC1)c1cnn2c(C(F)(F)F)cc(-c3ccc(Br)cc3)nc12 | i | -1.1
CCSc1nnc2c(n1)OC(c1sccc1C)N(C(C)=O)c1ccccc1-2 (stereo unspecified) | i | 0.2
Cc1ccc(Cl)cc1N1CCN(C(=O)c2cccc(-n3nnc4cccnc43)c2C)CC1 | i | 0.06
Cc1cc(C)nc(NC(c2ccc(F)cc2)c2cc(C)sc2NC(=O)c2ccccc2)n1 (stereo unspecified) | i | -1.4
O=C(Nc1nc2ccccc2n1Cc1ccc(Cl)cc1)c1ccccc1 | i | -0.16
CCc1nc(-c2csc(S(=O)(=O)N3CCCC(C(=O)N4CCc5ccccc54)C3)c2)no1 (stereo unspecified) | i | -0.06
O=C(c1cc2ccccc2c(=O)s1)N1CCc2ccccc2C1 | i | 0.53
COc1ccc(OC)c(CNC(=O)c2ccc(-n3nnc4cccnc43)cc2)c1 | i | 0.22
O=C(Cn1c(=O)nc2c3c4c(sc3ncn21)CCCC4)NC1CCCC1 | i | -0.5
CC(C)n1nc2c(S(=O)(=O)N3CCc4ccccc4C3)cccn2c1=O | i | 0.11
CCc1nc2nc3c(cn2n1)C(=O)CC(C)C3 (stereo unspecified) | i | -1.5
Cc1nn(-c2nc3ccc(Br)cc3s2)c2c1C(c1ccc(F)cc1)CC(=O)N2 (stereo unspecified) | i | 0.84
Cc1ccc(-n2ccc(=O)c(-c3nc(-c4cccc(C)c4)no3)n2)cc1 | i | 1.3
O=C(COc1cccc2ccc(N3CCCCC3)nc12)Nc1ccc(Br)cc1 | i | 0.27
COCc1cc(C)nc2sc3c(=O)n(-c4cccc(OC)c4)nnc3c12 | i | -1.1
CCC(C)NS(=O)(=O)c1cc(-c2nc(C)cs2)n(CC(=O)N2CCCC2)c1 (stereo unspecified) | i | -0.06
COc1ccc(C(=O)N2CCN(Cc3noc4ccccc34)CC2)cc1 | i | -0.59
Cc1ccccc1C1CC(=O)Nc2c1c(C)nn2-c1ccc2nncn2n1 (stereo unspecified) | i | 0.98
Cn1c(=O)c(=O)n(C)c2cc(S(=O)(=O)N3CCCC3c3cccc(F)c3)ccc21 (stereo unspecified) | i | 0.58
CCN(CC)C(=O)CCc1nc(-c2cc3cc(C)ccc3[nH]c2=O)no1 | i | -0.93
Cc1cccc(-c2nc3c4ccccc4n(CC(=O)c4ccc5c(c4)OCO5)c(=O)n3n2)c1 | i | 2.4
CCN(CCCNC(=O)c1nn(C)c2c1CSc1ccccc1-2)c1ccccc1 | i | -0.07
O=c1cc(CNc2ccccc2Cl)nc2nc(NCc3ccccc3)[nH]n12 | i | 0.42
Cc1ccc(-n2ccnc2SCc2nc(-c3ccc(Br)cc3)no2)cc1 | i | 0.68
CCC(C)Nc1cc(C)nc2c(-c3ccc(C)cc3)c(C(F)(F)F)nn12 (stereo unspecified) | i | -0.18
Cc1sc(C)c(S(=O)(=O)NCc2ccco2)c1-c1cc(C(F)(F)F)on1 | i | -1.8
O=C(Cn1c(=O)n(Cc2ccc(F)cc2)c(=O)c2sc3ccccc3c21)Nc1ccc(F)cc1 | i | 1.3
O=c1ccn(-c2cccc(F)c2)nc1-c1nc(-c2ccc(Br)cc2)no1 | i | -0.92
CCCCCn1c(SCc2nc(-c3ccc(OCC)cc3)no2)nc2cc3c(cc2c1=O)OCO3 | i | -0.47
COc1ccc(Oc2nc(N3CCCC3)c(Cl)c3c2N(C2CCCCC2)CCS3(=O)=O)cc1 | i | -1.4
CCCc1cc(C(=O)N2CCCC2c2cc(C)no2)no1 (stereo unspecified) | i | 0.07
CCOc1ccc(N2C(=O)CN(Cc3ccc(C)cc3)[C@H]3CS(=O)(=O)C[C@H]32)cc1 | i | 0.9
Cc1nc(-c2cccc(-c3noc(C4CC4)n3)c2)cs1 | i | -1.5
O=C(Cn1ncc2c(c1=O)N(C1CC1)C(=O)CS2)Nc1ccc2c(c1)OCCO2 | i | 0.79
CCCn1c(C)ccc(-c2noc(CCCC(=O)NC3CCCCC3)n2)c1=O | i | 0.68
CCCn1c(SCc2nc(-c3ccc(Cl)cc3)no2)nc2cc3c(cc2c1=O)OCO3 | i | 0.01
CCC1Cn2c(C(=O)NCCC(C)C)cc3c(Cl)ccc(c32)O1 (stereo unspecified) | i | 1.4
Cc1nnc(NC(=O)COc2ccc(-c3nc(-c4ccccc4)no3)cc2)s1 | i | 0.11
O=C(O)c1cnc(N2CCC(Cc3ccccc3)CC2)c(NS(=O)(=O)c2ccc(F)c(F)c2)c1 | i | -0.37
O=C(c1ccc(Cl)cc1)N1CCN(c2ncnc3c2c(-c2ccccc2)cn3-c2ccccc2)CC1 | i | -0.46
CN(C(=O)c1cc2c(=O)n3ccccc3nc2n1C)C1CCCCC1 | i | -1.2
CCn1c(=O)c(N2CCC(C(=O)NCCc3c[nH]c4ccc(Cl)cc34)CC2)nc2cccnc21 | i | 0.56

Other results
SMILES | Anaer choline gr | Anaer choline gr early
CCN1CCCC1CNC(=O)C1CCc2nc(N3CCOCC3)ncc2C1 (stereo unspecified) | i | -0.02
COc1cccc(C2Nc3c(C)cc(C)cc3[C@H]3OCCC[C@@H]23)c1OC (stereo partly specified) | i | 0.34
COc1cccc(NC(=O)Cc2ccc3nc(NC(C)=O)sc3c2)c1 | i | 1
Cc1nc(-c2cccc(NC(=O)CN3C(=O)COc4ccccc43)c2)no1 | i | 1.7
Cn1ncc(Cl)c1C(=O)N1CCCC1c1ccc(F)cc1 (stereo unspecified) | i | -0.02
Cc1oc2ncnc(OCC(=O)NCc3ccc4c(c3)OCO4)c2c1C | i | -1.9
COc1ccc(OC)c(NC(=O)c2cnn(-c3ccc(Br)cc3)c2)c1 | i | -0.19
CCc1cccc(NC(=O)CCc2c(C)nc3nc(-c4cc(OC)cc(OC)c4)nn3c2C)c1 | i | 0.32
Fc1ccccc1C1NCCc2c1[nH]c1ccccc21 (stereo unspecified) | i | -1.6
COc1ccccc1N1CCN(CCN2C(=O)c3ccccc3C(C)(C)C2=O)CC1 | i | 0.76
CCOc1ccc(NC(=O)CSCc2nc3cccnc3n2C2CCCCC2)cc1 | i | 0.4
CCN(CC)CCNC(=O)CC1CCN(S(=O)(=O)c2ccc(Cl)s2)CC1 | i | 0.02
O=C(CCc1nc(CSc2nc(-c3ccc(F)cc3)cs2)no1)Nc1nccs1 | i | -0.25
CCCCn1c(=O)[nH]c2ccccc2c1=O | i | -1.6
Cn1c(=O)c(=O)n(C)c2cc(S(=O)(=O)C3CCCCC3)c(NC(=O)c3ccc(F)cc3)cc21 | i | 0.33
O=C(NC1CCCCC1)C1CCCN1S(=O)(=O)c1cccc2nsnc12 (stereo unspecified) | i | -0.29
O=C(NCC1CCCO1)c1sc2ncccc2c1-n1cccc1 (stereo unspecified) | i | -0.84
O=C(O)c1cnn(-c2ccccc2)c1-n1cccc1CNCc1ccc(F)cc1 | i | -0.9
C=CCN1C(=O)C2(c3ccccc31)c1c(oc3ccc(C)cc3c1=O)C(=O)N2CC1CCCO1 (stereo unspecified) | i | 0.1
COc1cc(Nc2c3c(nc4ncnn24)CCCC3)cc(OC)c1 | i | 1.8

4 compounds out of the list above, sorted by the number in Anaer choline gr early, low to high.
Compound	Anaer choline gr early
O=C(NCC1CCCO1)c1sc2ncccc2c1-n1cccc1 (stereo unspecified)	-0.84
CCN(CC)CCNC(=O)CC1CCN(S(=O)(=O)c2ccc(Cl)s2)CC1	0.02
Cn1c(=O)c(=O)n(C)c2cc(S(=O)(=O)C3CCCCC3)c(NC(=O)c3ccc(F)cc3)cc21	0.33
COc1cc(Nc2c3c(nc4ncnn24)CCCC3)cc(OC)c1	1.8

The results go on.
SMILES | Anaer choline gr | Anaer choline gr early
CCCc1cnc2c(c1SCC(=O)O)c(=O)n(C)c(=O)n2C | i | 0
CCOC(=O)c1cnc2cc(-c3ccc(OCC)cc3)nn2c1-c1ccccc1 | i | 1.1
O=C(Cn1ccn2nc(-c3ccc4c(c3)OCO4)cc2c1=O)NCc1ccccc1 | i | -0.13
CCOc1ccc(N(CC(=O)N2CC(=O)Nc3ccccc32)S(C)(=O)=O)cc1 | i | 1.1
CCCOc1ccc(C(=O)NCCc2csc(-c3ccccc3)n2)cc1 | i | 0.22
COc1ccc2[nH]c3c(c2c1)CCNC31CCN(C)CC1 | i | -0.77
O=C(NCC1CCCO1)C1CCN(c2ccc3cc(S(=O)(=O)N4CCCCC4)ccc3n2)CC1 (stereo unspecified) | i | -0.17
COc1ccc(CC(=O)N2CCc3c(c(C(=O)NCc4ccc(Cl)cc4)nn3C)C2)cc1OC | i | -0.3
Nc1nc(=O)n([C@@H]2CS[C@H](CO)O2)cc1F | i | 0.87&0.31
CC1(C)C(=O)N(CC(=O)NC2CCCc3ccccc32)c2ccc(S(=O)(=O)N3CCCC3)cc21 (stereo unspecified) | i | -0.34
COc1ccc(S(=O)(=O)N2CCc3cc4cccc(C)c4nc32)c(OC)c1 | i | 1.7
CCOC(=O)c1nc2ccccc2nc1NCCN1CCc2ccccc2C1 | i | -1.5
O=c1cc(CN2CCN(CCO)CC2)nc2nc(NCc3ccccc3Cl)[nH]n12 | i | 0.3
Cc1cccc(NC(=O)c2ccc(=O)n(Cc3cccc(F)c3)c2)c1 | i | -0.7
O=C(Nc1ccccc1)c1nnc(C2CCN(C(=O)Nc3cccc(Br)c3)CC2)s1 | i | 0.82
CCN(c1cccc(C)c1)S(=O)(=O)c1ccc(N2CCCCS2(=O)=O)cc1 | i | 0.74
CCOc1ccc(-c2nc(COc3cc(C(F)(F)F)c4c(C)nn(C)c4n3)c(C)o2)cc1 | i | -1.1
CCCC(=O)N1CCN(c2cc(N3CCOCC3)nc(C)n2)CC1 | i | 0.02
CC(=O)N1CCCSc2ccc(S(=O)(=O)NCCN3CCOCC3)cc21 | i | -0.64
COc1ccc(Cl)cc1S(=O)(=O)N1CCN(c2nc3ccccc3n3cccc23)CC1 | i | -0.47
COc1ccc(-c2noc(N3CCC(N4CCCCC4)CC3)n2)cc1OC | i | 0.23
CCCCNC(=O)c1cc(=O)n(CC)c2c1c(=O)n(CC)c(=O)n2C | i | -0.16
CCCC(=O)NC(C)c1nc(-c2ccccc2)no1 (stereo unspecified) | i | -1.1
CCCN(CCC)CCNc1cc(C)nc2c(-c3ccccc3OC)c(C)nn12 | i | -0.02
C=CCSc1nc2c(c(=O)[nH]1)C(C(=O)Nc1cc(F)cc(F)c1)CC(=O)N2 (stereo unspecified) | i | -0.19
CCOC(=O)C1CCC(CNC(=O)N2CCCC2c2cc(C)on2)CC1 (stereo unspecified) | i | -0.49
Cc1cc2c(cc1S(=O)(=O)N1CCCC(C(=O)N3CCOCC3)C1)OC(C)C(=O)N2 (stereo unspecified) | i | 0.19
CC1CCC(NC(=O)C(Cc2c[nH]c3ccccc23)NC(=O)C2CCC(C)CC2)CC1 (stereo unspecified) | i | -0.97
CCc1ccc(NC(=O)CSc2nnc3ccc(C(=O)Nc4ccc(C)cc4)cn23)cc1 | i | -0.18
Cn1c(=O)n(-c2ccc3c(c2)OCO3)c2nc(-c3ccc(F)cc3)nc(C(N)=O)c21 | i | -1.2

Shown field by field: entries from further up
SMILES: O=C(NCC1CCCO1)C1CCN(c2ccc3cc(S(=O)(=O)N4CCCCC4)ccc3n2)CC1 (stereo unspecified)
  Anaer choline gr: i
  Anaer choline gr early: -0.17

SMILES: COc1ccc(CC(=O)N2CCc3c(c(C(=O)NCc4ccc(Cl)cc4)nn3C)C2)cc1OC
  Anaer choline gr: i
  Anaer choline gr early: -0.3

SMILES: Nc1nc(=O)n([C@@H]2CS[C@H](CO)O2)cc1F
  Anaer choline gr: i
  Anaer choline gr early: 0.87&0.31

SMILES: CC1(C)C(=O)N(CC(=O)NC2CCCc3ccccc32)c2ccc(S(=O)(=O)N3CCCC3)cc21 (stereo unspecified)
  Anaer choline gr: i
  Anaer choline gr early: -0.34

Remaining list, next part.
SMILES | Anaer choline gr | Anaer choline gr early
O=C(NCc1ccc(Br)cc1)C1CCCN(c2ccnc(-c3ccccc3)n2)C1 (stereo unspecified) | i | -1.1
CC(C)c1ccc(NC(=NCc2ccncc2)NC(=O)c2ccc(CN3CCOCC3)cc2)cc1 | i | -1.8
CCCN1CCN(c2nnc(-n3cccc3CN3CCN(c4ccc(F)cc4)CC3)s2)CC1 | i | -2.1
CN(C)c1nc2ncnc(SCC(=O)Nc3ccc4c(c3)OCO4)c2s1 | i | 0.79
CN(C)S(=O)(=O)N(CC(=O)NCCCN1CCCC1)c1ccccc1 | i | 1.1

Not all compounds are listed; rates above refer to the full screens.
